Screens (PubChem)
D2 potentiator: potentiates the human D2 dopamine receptor allosterically. AID 624464. P14416. 360,000 tested, 0.23% active. potentiation, % (test concentration not listed). DiscoveRx D2 beta-arrestin cells, luminescence, 90 min; 100% = 57 uM dopamine signal; active = potentiation of 50% or more; inconclusive = 30% to 50%; inactive = 30% or less;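 note: compound concentration not given in the record; tested on top of an EC20 dose of dopamine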
Target sequence (P14416 whole entry, looked up): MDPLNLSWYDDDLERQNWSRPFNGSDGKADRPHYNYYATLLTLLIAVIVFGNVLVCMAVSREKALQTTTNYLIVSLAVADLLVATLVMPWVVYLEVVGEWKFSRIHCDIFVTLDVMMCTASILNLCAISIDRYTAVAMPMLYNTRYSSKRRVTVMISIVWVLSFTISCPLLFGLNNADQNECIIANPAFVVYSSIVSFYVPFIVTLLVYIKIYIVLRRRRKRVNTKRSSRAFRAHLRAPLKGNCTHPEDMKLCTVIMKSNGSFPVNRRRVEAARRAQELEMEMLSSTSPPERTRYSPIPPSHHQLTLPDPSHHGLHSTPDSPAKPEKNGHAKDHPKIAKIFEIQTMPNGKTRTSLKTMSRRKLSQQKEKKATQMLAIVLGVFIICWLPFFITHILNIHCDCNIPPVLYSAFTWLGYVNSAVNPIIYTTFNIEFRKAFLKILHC
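D2 cells co-treated with compound plus 50 nM dopamine (EC20) for 90 min at 37 deg C to detect potentiation. Beta-arrestin recruitment was read as enzyme-fragment luminescence after 1 h at ambient temperature. Full response was set by 57 uM dopamine.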
TRPML1 agonist: agonists of human TRPML1 channel. Q9GZU1. TRPML1-expressing cells, Ca2+ dye fluorescence, FDSS; host cell line not named in the record; reference of the full effect not given here. activation, % (concentration not given with the values). 410,000 tested, 0.12% active. AID 624414; in the data active = activation above about 50%; inconclusive = about 30% to 50%; inactive = below about 30%; note: 0% is about no effect; the text of the record puts the active cut at 80%
Target sequence (Q9GZU1 whole entry, looked up): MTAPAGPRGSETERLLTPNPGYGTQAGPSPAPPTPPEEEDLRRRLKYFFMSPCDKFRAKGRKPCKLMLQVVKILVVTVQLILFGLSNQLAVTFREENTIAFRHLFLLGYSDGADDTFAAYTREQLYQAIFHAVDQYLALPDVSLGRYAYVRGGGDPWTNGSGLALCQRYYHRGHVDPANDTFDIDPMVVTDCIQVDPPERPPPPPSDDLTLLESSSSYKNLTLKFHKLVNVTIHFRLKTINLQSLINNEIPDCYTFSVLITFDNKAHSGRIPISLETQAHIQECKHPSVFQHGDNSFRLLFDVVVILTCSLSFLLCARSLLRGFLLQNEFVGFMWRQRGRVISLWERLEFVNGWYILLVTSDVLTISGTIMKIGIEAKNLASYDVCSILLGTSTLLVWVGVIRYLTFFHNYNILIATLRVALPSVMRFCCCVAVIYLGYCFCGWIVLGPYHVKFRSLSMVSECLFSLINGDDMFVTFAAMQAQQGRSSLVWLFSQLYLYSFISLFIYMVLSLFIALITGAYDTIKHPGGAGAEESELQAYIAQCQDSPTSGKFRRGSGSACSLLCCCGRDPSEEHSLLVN
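Kinetic FDSS Ca2+ read in Tet-induced TRPML1-DL cells (ABD Ca8 dye plus quencher, 45-90 min RT loading): baseline, then compound, then 110 s agonist window; EC80 agonist 54-4 at 4uM final added afterwards for a 110 s antagonist window.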
Six1-Eya2 blk: blocks human Six1 binding to Eya2 | 360,000 tested, 0.56% active | activity change, % (test concentration not listed) | AlphaScreen GST-Six1/His-Eya2 binding, biochemical; hits give low values; control for the full effect not named in the record; in the data active = activity change below about -65%; inconclusive = about -30% to -65%; inactive = above about -30%; note: % is set by controls: 0 for no effect and ±100 for the full control effect; compound concentration not given in the record
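Compounds are tested against tagged Six1 and Eya2 proteins bridged by glutathione donor and nickel acceptor beads; after a one-hour incubation at 37 °C without light, AlphaScreen emission is recorded.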
TRPML1 blocker: human mucolipin-1 channel inhibition; 390,000 tested, 0.02% active; TRPML1-inducible cells, Ca2+ dye fluorescence, FDSS; hits give low values; inhibition of EC80 agonist-evoked calcium signal; Q9GZU1; AID 624415; activity change, negative = inhibition, % (test concentration not listed); in the data active means activity change below about -50%; inconclusive means about -30% to -50%; inactive means above about -30%;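 note: stimulus is agonist 54-4 at its EC80 concentration; % is set by controls: 0 for no effect and ±100 for the full control effect; compound concentration not given in the record; the text of the record puts the active cut at -80%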
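Tet-induced TRPML1-DL cells loaded with Ca8 no-wash calcium dye were read kinetically on FDSS. Compound addition was followed by EC80 agonist 54-4 (4 uM final); inhibition was read over 110 s.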
D2 agonist: agonists of human D2 dopamine receptor (beta-arrestin) | 360,000 tested, 0.084% active | DiscoveRx PathHunter D2 beta-arrestin, luminescence, 90 min; 100% = 57 uM dopamine signal | activation, % (no concentration beside the values) | P14416; in the data active = activation above about 40%; inconclusive = about 15% to 40%; inactive = below about 15%; note: compound concentration not given in the record; the text of the record calls up to 30% inactive
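DiscoveRx PathHunter D2 beta-arrestin cells (2,100/well) attached overnight, then compound-stimulated 90 min at 37 C in HBSS/10 mM HEPES/0.1% Tween-20 buffer; beta-galactosidase complementation read by luminescence after 1 h at ambient temperature. Dopamine 57 uM final (EC100) as control.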
PINK1 modulator: modulators of PINK1 expression; PINK1 immunofluorescence, high-content cytometry, 24 h; Potency, µM (titrated, usually from 76.6 µM), inactives show top-dose activation (PINK1 increase), usual class: activators; 410,000 tested, 0.2% active; active = well fitted activation curve with a large enough effect; inconclusive = small, poorly fitted or top-dose-only effect; inactive = flat fitted curve, though single readings scatter; cell line not stated here;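 note: potency is the fitted concentration of half-maximal effect; % of control where 0% means no effect; nearly all actives have a fitted effect of over 65% in size; a mitochondrial uncoupler was the plate control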
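Decision-based qHTS: stable cells, 24 h exposure to five compound concentrations, CCCP as control. Fixed cells stained for PINK1 plus nuclear, mitochondrial and cell markers, cytometer read.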
Starred values were filed as active, the others as inactive; ? = inconclusive; . = not tested or not shown; [ ] = another dose, or the depositor's remark.

SMILES | D2 potentiator | TRPML1 agonist | Six1-Eya2 blk | TRPML1 blocker | D2 agonist | PINK1 modulator
CCOC(=O)Cc1csc(NC(=O)c2sc3nc4c(C)cc(C)cc4cc3c2N)n1 | -2 | 14 | 0 | 17 | -2.6 | 14%[38.3 µM]
COc1ccc(OC)c2sc(NC(=O)c3ccc(S(=O)(=O)N(C)C)cc3)nc12 | -7 | -0.1 | -7 | -7 | 2.0 | 7.0%
Cc1ccc(-n2c(SCn3nnc4ccccc4c3=O)nnc2-c2cccnc2)c(C)c1 | -4 | -0.5 | -6 | 4 | -1.6 | -1.6%[38.3 µM]
CCOC(=O)c1[nH]c(C)c(CCC(=O)NCc2cccc(Cl)c2)c1C | . | -0.4 | . | 6 | . | -0.4%
CN(C)c1ccc(-c2ccnc3c2CC(C)(C(=O)NCC2CCOCC2)O3)cc1 (stereo not given) | 2 | -1.0 | 1 | . | 1.4 | 7.6%
O=C(NCCN1CCCCC1)c1ccco1 | -15 | 0.6 | 0 | 25 | -2.6 | 1.2%
C[C@@H]1CC[C@H](O)/C=C/C(=O)O[C@H](C)CC[C@H](O)/C=C/C(=O)O1 | 0 | -0.3 | 1 | -12 | 3.8 | 0.5%
CCn1ncc(CNC(=O)CCSc2nc(-c3ccco3)cc(C(F)(F)F)n2)c1C | 0 | -0.6 | 2 | -10 | -1.0 | 2.1%
CCCNC(=O)CCC(NS(=O)(=O)c1ccc(C)cc1)C(=O)NCCC (stereo not given) | -9 | -0.6 | 5 | 3 | -0.6 | -4.6%[38.3 µM]
Cc1ccccc1NC(=O)c1ccc(NC(=O)C2CC(=O)OC23CCCCC3)cc1 (stereo not given) | 1 | -0.2 | ? | 0 | -0.3 | 0.4%
COc1ccc(-c2cn3c(n2)sc2cc(C(=O)NCCc4ccc(OC)cc4OC)ccc23)cc1 | . | -0.4 | . | 16 | . | 0.6%
Cc1cc(OC(=O)c2c(Cl)cc(Cl)cc2Cl)nc(C)n1 | -3 | 1.2 | -9 | -11 | -2.3 | 4.3%
O=C(CSCc1ccc([N+](=O)[O-])cc1)NC1CC2CCC1C2 (stereo not given) | 10 | -0.8 | 10 | 1 | -0.5 | -0.1%
CSc1nc(Sc2ccccc2Cl)c2ccccc2n1 | 6 | 1.9 | 8 | -16 | -1.5 | 3.4%
CC1=NN(C(=O)COc2ccc(C)c(C)c2)C(O)(c2ccc(Cl)cc2)C1 (stereo not given) | 3 | -0.2 | 16 | -3 | -0.6 | 5.4%
O=C(CCC(=O)c1ccc(Oc2ccccc2)cc1)Nc1ccc(C(=O)O)cc1 | -21 | -0.1 | 12 | -7 | -2.2 | -1.5%
O=P(c1ccccc1)(c1ccccc1)C(c1ccco1)N1CCOCC1 (stereo not given) | -6 | 0.0 | -4 | -2 | 3.5 | -0.6%
CNS(=O)(=O)c1ccc(CNC[C@H]2O[C@@H](n3cc(C)c(=O)[nH]c3=O)C[C@@H]2O)cc1 | -2 | -0.3 | 9 | 16 | -6.2 | 0.3%
O=C1c2c(O)cc(O)cc2O[C@H](c2ccc(O)c(O)c2)[C@H]1O | 5 | 0.7 | 0 | 10 | 2.4 | -0.5%
COCCOC(=O)C1=C(C)N=C2SCCC(=O)N2C1c1cccs1 (stereo not given) | -3 | 0.3 | ? | -3 | -1.7 | -0.3%
CC(c1nnc(SCC(=O)c2c(N)n(C)c(=O)n(C)c2=O)n1-c1ccc(Cl)cc1)N(C)C (stereo not given) | -9 | -0.6 | 0 | -5 | 0.0 | 2.4%[38.3 µM]
Cc1ccc(/C=C/c2onc(C)c2S(=O)(=O)N2CCC(C(=O)Nc3ccc(OC(F)(F)F)cc3)CC2)cc1 | . | -0.2 | . | 1 | . | 1.1%
CC(=O)Nc1ccc(NC(=O)c2csc([C@@H]3O[C@H](CO)[C@H](O)[C@H](O)[C@H]3O)n2)cc1 | -5 | -0.3 | -2 | . | -5.7 | 1.4%
O=C(Nc1nc2ccccc2s1)c1cccc(N2C(=O)CCC2=O)c1 | -2 | -0.1 | -7 | -5 | 3.2 | 1.2%
Cc1cc(C)cc(NC(=O)c2sc3nc[nH]c(=O)c3c2C)c1 | . | 0.6 | . | -21 | . | 2.8%
O=C(Cc1cccs1)NCCS(=O)(=O)N1CCN(c2ccccc2F)CC1 | -21 | 0.0 | 3 | -10 | 2.3 | 9.3%
CCc1ccc2c(c1)c(=O)c(S(=O)(=O)c1ccc(F)cc1)cn2CC(=O)Nc1ccc(C)cc1C | . | -0.6 | . | 16 | . | 1.7%
Cc1cccc(Nc2nc3ccccc3n3c(N)nnc23)c1 | . | 0.5 | . | 31 | . | -0.3%
CC(=O)c1ccc(NC(=O)CSC(=S)N2CCCC2)cc1 | -3 | 0.1 | 1 | -6 | 3.2 | -4.6%
NC(=O)C1CCN(C(=O)CC2(CC(=O)O)CCCCC2)CC1 | 1 | -0.3 | -6 | 17 | -2.4 | 0.1%
O=C(NCc1ccccc1)c1cc(-c2cccs2)on1 | -10 | 0.3 | 4 | 20 | -0.3 | ?
COc1ccc(C(=O)Nc2cc(Cl)ccc2N2CCOCC2)cc1S(=O)(=O)N1CCOCC1 | -5 | 0.1 | -9 | -5 | -0.8 | 3.4%
COC(=O)C(NC(=O)c1ccccc1)C(C)(C)SCc1ccccc1 (stereo not given) | -3 | -0.8 | -15 | 9 | -3.2 | 0.7%
COc1ccc(NC(=O)C2Cc3ccccc3CN2S(=O)(=O)c2ccccc2)cc1OC (stereo not given) | . | -1.2 | . | -7 | . | -0.3%
Cc1ccc(C(=O)CSc2nnc(-c3ccccc3N)n2C)cc1 | 4 | -0.6 | -1 | -13 | -2.3 | -0.6%
COCc1cc(N2CCOCC2)nc(SCc2ccc(Cl)cc2)n1 | -4 | 1.1 | 3 | 9 | 4.1 | 1.7%
Cc1cc(=O)oc(C)c1C(=O)Nc1cccc2nonc12 | -6 | 0.3 | 8 | -1 | 0.7 | 0.6%
CCCCN1C(=N)N([C@@H](CCC)CN2CCC[C@H]2CN2C(N)=NC[C@H]2CC(C)C)C[C@H]1Cc1ccccc1 | . | -0.3 | -9 | -9 | -2.6 | 1.1%
Cc1noc(C)c1S(=O)(=O)N1CCCCC1 | 6 | -0.5 | 0 | -28 | -2.0 | -1.1%[38.3 µM]
Cc1nn(Cc2ccccc2)c(C)c1NC(=O)CSc1nc(C2CC2)nc2c1cnn2-c1ccccc1 | 12 | 0.5 | -1 | -1 | 0.4 | 4.5%
Cc1cccn2c(=O)c(/C=C(\C#N)c3nc4ccccc4n3C)c(Oc3ccc(Cl)cc3)nc12 | . | -0.1 | . | -8 | . | 6.1%
COc1cc(Nc2ccccc2Cl)c([N+](=O)[O-])nc1[N+](=O)[O-] | 20 | -0.4 | -17 | 6 | 4.3 | -0.5%[38.3 µM]
COc1ccccc1C1/C(=C(/O)c2ccccc2)C(=O)C(=O)N1CC(C)O (stereo not given) | 23 | 0.1 | 1 | -2 | 0.7 | -0.2%
O=C(NCc1ccco1)C12CC3CC(CC(C3)C1)C2 | -8 | -1.4 | 0 | 10 | -3.6 | 0.6%
Cc1cccc(N(Cc2cc3ccc(C)cc3[nH]c2=O)S(=O)(=O)c2ccccc2)c1 | -2 | 2.4 | -8 | 2 | 1.0 | 2.4%
COC(=O)c1cc(OC)c(OC)cc1NC(=O)c1csc(C)c1 | -1 | 2.7 | -5 | -2 | -2.8 | 5.2%
CC1C(=O)N(Cc2cn(CCC3OCCCO3)nn2)CCS(=O)(=O)N1Cc1ccc(-c2ccc(Cl)c(Cl)c2)cc1 (stereo not given) | -8 | 3.4 | -10 | -11 | 1.1 | 6.4%
CC1(c2ccccc2)NC(=O)N(CC(=O)Nc2ccc(S(=O)(=O)Nc3ncccn3)cc2)C1=O (stereo not given) | 8 | -0.3 | 0 | 10 | 1.9 | 0.8%
COc1ccccc1N(CC1CO1)S(=O)(=O)c1ccccc1 (stereo not given) | -5 | -0.1 | 3 | 3 | -2.7 | -1.1%
Cc1ccc2c(COC(=O)CNC(=O)c3ccco3)cc(=O)oc2c1C | 18 | 0.5 | -3 | -6 | -4.1 | -4.0%
O=C(Oc1ccccc1)c1ccc(COC(=O)c2cnccn2)cc1 | -3 | 1.0 | 2 | 17 | 0.7 | -2.1%
CC1CC2=C(C(=O)O1)C(c1ccc(Cl)cc1)Nc1ccccc1N2 (stereo not given) | -7 | 2.9 | 9 | 8 | -6.9 | 2.4%
N#Cc1c2c(c(=S)n(-c3ccccc3)c1N)CCCC2 | -8 | 0.1 | -7 | -1 | -2.7 | 0.0%
CC(=O)Nc1cc(-c2cccc(NS(C)(=O)=O)c2)cn2c(-c3cccc(C(F)(F)F)c3)cnc12 | 1 | -0.2 | -11 | . | 5.0 | 0.4%
CC(C)c1ccc(NC2CCCN(C(=O)c3ccc(Cn4cnnn4)cc3)C2)cc1 (stereo not given) | -3 | 0.0 | -1 | -2 | 0.1 | 0.2%
Cc1ccc(-c2ccc(/C=N/NC(=O)Cc3nnc(N)s3)o2)cc1Cl | -2 | 1.2 | 4 | -15 | -3.1 | 3.6%
COc1ccccc1CNC(=O)c1nnn(CC(=O)Nc2c(C)cccc2C)c1N | . | 0.9 | . | 33 | . | 3.6%
Cc1cc(N2CCN(c3ccccc3)CC2)n2cnnc2n1 | . | 0.1 | . | -8 | . | 0.6%
COc1ccc(N2CCN(Cc3nc4cc(Cl)ccc4c(=O)[nH]3)CC2)cc1 | 9 | -1.2 | -2 | 9 | -4.2 | 3.9%
COc1ccc(N2CCN(C(CNC(=O)c3ccc(C)cc3)c3ccc4c(c3)OCO4)CC2)cc1 (stereo not given) | . | 3.3 | . | 6 | . | 0.7%
CCOc1ccc(Br)cc1CNCCN1CCOCC1 | -5 | 3.0 | 7 | -9 | -3.0 | -1.6%
CCOC(=O)c1c(NC(C)=O)sc2c(O)cccc12 | 7 | -0.6 | 0 | -7 | -1.5 | .

Ordered by SMILES length (lowest first): some entries from above
SMILES | D2 potentiator | TRPML1 agonist | Six1-Eya2 blk | TRPML1 blocker | D2 agonist | PINK1 modulator
CCOc1ccc(Br)cc1CNCCN1CCOCC1 | -5 | 3.0 | 7 | -9 | -3.0 | -1.6%
Cc1cc(N2CCN(c3ccccc3)CC2)n2cnnc2n1 | . | 0.1 | . | -8 | . | 0.6%
Cc1ccc2c(COC(=O)CNC(=O)c3ccco3)cc(=O)oc2c1C | 18 | 0.5 | -3 | -6 | -4.1 | -4.0%
COc1ccccc1CNC(=O)c1nnn(CC(=O)Nc2c(C)cccc2C)c1N | . | 0.9 | . | 33 | . | 3.6%
CC(=O)Nc1cc(-c2cccc(NS(C)(=O)=O)c2)cn2c(-c3cccc(C(F)(F)F)c3)cnc12 | 1 | -0.2 | -11 | . | 5.0 | 0.4%
CC1C(=O)N(Cc2cn(CCC3OCCCO3)nn2)CCS(=O)(=O)N1Cc1ccc(-c2ccc(Cl)c(Cl)c2)cc1 (stereo not given) | -8 | 3.4 | -10 | -11 | 1.1 | 6.4%
